ALR inh: blocks human ALR sulfhydryl oxidase activity. P55789. purified ALR, DTT oxidation, H2O2 HRP-luminol luminescence. inhibition, % (concentration not given with the values). actives 3.8% (n = 290,000). AID 485317;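 active = mean and each replicate at 75% or more; inconclusive = only one of the two met; inactive = neither met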;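 also: stock transfer was 7.5 nL into about 7.5 µL; 0% = neutral wells and 100% = wells with inactivated enzyme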
Target sequence (P55789 whole entry, looked up): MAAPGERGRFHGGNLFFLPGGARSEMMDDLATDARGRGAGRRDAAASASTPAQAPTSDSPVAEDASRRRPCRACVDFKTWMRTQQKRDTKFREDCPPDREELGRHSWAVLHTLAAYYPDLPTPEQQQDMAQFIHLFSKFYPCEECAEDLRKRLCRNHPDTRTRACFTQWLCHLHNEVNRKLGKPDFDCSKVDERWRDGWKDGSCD
B2AR ag: agonists of human beta-2 adrenergic receptor inducing internalization; AID 504454; Am2.2-beta2AR cells, FAP receptor internalization, flow cytometry; reference of the scale not given here; P07550; response, % (concentration not given with the values); actives 0.43% (n = 340,000);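 active = response above a set limit, near 3 SD of response in nonfluorescent compounds, cut at about 42% in these data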;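 also: stock transfer was 100 nL into about 11 µL; a reference agonist was the positive control; negative values mostly stem from fluorescent compounds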
HNF4A DNA FP: change in binding of human HNF4 alpha to DNA; activity change, % at 10 µM; P41235; HNF4a-FITC DNA binding, fluorescence polarization, 1 h; actives 0.3% (n = 360,000); in the data active = activity change above about 30%, passing the limit was not always enough;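 also: controls were the assay level and a saturating level of protein; the project sought stronger binding though the title names inhibitors; some compounds called inactive have numbers as strong as hits; positive values seem to mean higher polarization but the record does not say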
Target sequence (P41235 whole entry, looked up): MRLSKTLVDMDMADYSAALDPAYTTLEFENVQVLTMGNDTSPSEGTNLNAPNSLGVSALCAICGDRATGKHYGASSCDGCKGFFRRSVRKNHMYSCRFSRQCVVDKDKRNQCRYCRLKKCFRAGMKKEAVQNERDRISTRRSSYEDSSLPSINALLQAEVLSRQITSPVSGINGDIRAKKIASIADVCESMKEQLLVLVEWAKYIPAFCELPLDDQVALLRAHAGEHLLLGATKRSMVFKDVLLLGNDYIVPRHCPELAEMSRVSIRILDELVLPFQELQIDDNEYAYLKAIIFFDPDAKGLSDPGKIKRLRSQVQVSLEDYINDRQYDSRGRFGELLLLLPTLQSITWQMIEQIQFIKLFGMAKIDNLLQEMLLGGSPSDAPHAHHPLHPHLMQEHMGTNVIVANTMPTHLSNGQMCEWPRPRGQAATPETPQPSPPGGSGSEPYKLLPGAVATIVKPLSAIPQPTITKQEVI
E coli growth: E. coli growth inhibition | OD600 absorbance (no concentration beside the values) | AID 1053175 | Escherichia coli growth, OD600, 23 h; hits give low values | actives 0.21% (n = 330,000);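 active = OD600 absorbance below the run mean of sample wells minus 3.6 SD, in any replicate, cut at about 0.56 in these data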;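 also: stock transfer was 300 nL into about 60 µL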
LANA-H2B inh: blocks KSHV LANA binding to histone H2A/H2B; Q9QR71; cell-free LANA-H2A/H2B peptide, fluorescence polarization; inhibition, % (test concentration not listed); actives 0.6% (n = 320,000); AID 2629; in the data active = inhibition mostly above about 10%, no sharp cut-off; inactive = mostly below about 6.7%;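 also: stock transfer was 7.5 nL into about 10 µL; 0% = median of vehicle wells and 100% = median of positive control wells; one replicate is shown; the record names a cut of 25% in any replicate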
FGF22 binding: binders of recombinant human FGF22 by thermal shift. SYPRO orange fluorescence; percent of sucrose octasulfate shift, DMSO zero. Q9HCT0. calls only at 9.99 µM. actives 1.5% (n = 340,000);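 active = melting point raised past a set limit in the mean and every replicate; inconclusive = no clear call; three in four hits are not shown here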
Target sequence (Q9HCT0 whole entry, looked up): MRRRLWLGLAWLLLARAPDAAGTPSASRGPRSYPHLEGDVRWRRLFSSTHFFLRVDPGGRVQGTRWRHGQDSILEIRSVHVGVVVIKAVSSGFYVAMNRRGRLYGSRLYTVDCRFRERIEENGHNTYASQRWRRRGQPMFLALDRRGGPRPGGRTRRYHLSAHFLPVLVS
UCH37 DUB inh: human UCH37 deubiquitinating enzyme inhibition; inhibition, % (concentration not given with the values); Q9Y5K5; actives 0.33% (n = 330,000); purified proteasome/UCH37, Ub-AMC cleavage fluorescence;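 active = mean of two replicates above 20%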;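 also: 0% = compound-free wells with enzyme and 100% = wells lacking proteasome; stock transfer was 100 nL into about 20 µL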
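Reagent: Ub-AMC substrate; assay system: Proteasome-associated human UCH37 deubiquitinase; controls: no-proteasome and no-compound wells; read-out: % inhibition of Ub-AMC cleavage fluorescence; timing: 30 min preincubation with enzyme, 25 min cleavage at room temperature; signal: AMC fluorescence from Ub-AMC cleavage, excitation 355 nm, emission 460 nm; buffer or medium: Tris-HCl pH 7.4 plus ovalbumin, ATP-MgCl2, DTT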
The depositor's hits bear a star; i = inactive; ? = inconclusive; / = not tested or not shown.

smiles,LANA-H2B inh,HNF4A DNA FP,B2AR ag,FGF22 binding,E coli growth,ALR inh,UCH37 DUB inh
Cc1cccc(OCCn2nc(C(=O)O)c3ccccc3c2=O)c1,1.8,2.5,0.3,/,0.719,-4.1,5.3
O=C(Nc1ccccc1O)c1ccc(NS(=O)(=O)c2cccc3cccnc23)cc1,3.0,1.3,-4.5,i,/,44.3,/
Cc1cc(C)c(C(=O)COC(=O)c2cc([N+](=O)[O-])ccc2N2CCOCC2)cc1C,1.0,0.1,-6.7,i,/,3.2,/
O=C(NNC(=O)c1cc2ccccc2cc1O)Nc1ccc(F)cc1F,-9.2,-4.3,7.9,i,0.707,1.4,-38.1
N#CCc1ccc(OC(=O)c2cnccc2C(F)(F)F)cc1,-4.5,-1.2,1.3,i,0.674,/,1.0
CCC(CO)NCc1ccccc1OC(C)C (stereo unspecified),-0.9,1.6,-2.2,i,0.663,-2.4,0.8
CN1CCN(C(=O)c2ccc(CS(=O)Cc3ccc(Cl)cc3)o2)CC1 (stereo unspecified),-2.0,-1.4,-3.3,i,0.65,-0.3,-1.4
COc1cc(-c2nc3ccccn3c2N)ccc1O,4.6,7.8,-5.9,i,0.675,/,-346.6
COC(=O)c1cc(C(=O)OC)n(Cc2ccc(F)cc2)n1,-4.0,-1.9,2.2,/,0.673,3.1,-0.1
O=C(CN(C(=O)c1csnn1)c1ccc(F)c(Cl)c1)NC1CCCCC1,-5.1,3.2,-4.7,i,0.666,-1.0,2.5
CCOc1ccc(C(=O)NCC(=O)OCc2csc(-c3ccccc3)n2)cc1,-5.8,3.3,5.0,i,0.635,?,1.1
COCCCNC(=O)CC(NS(=O)(=O)c1ccc(Cl)cc1)c1ccco1 (stereo unspecified),-5.3,0.9,-6.3,/,0.677,3.8,1.9
COc1cccc(NC(=O)c2cccc(C)c2[N+](=O)[O-])c1,0.4,1.9,-3.6,i,0.698,-3.8,3.3
Nc1ccc(S(=O)(=O)Nc2cc(Cl)c(N)c(Cl)c2)cc1,/,-2.1,-4.7,i,0.663,/,1.0
Cc1cc(Sc2nc(N(C)C)nc(N(C)C)n2)nc(Cl)n1,-3.8,0.8,-17.5,i,0.702,-6.3,1.3
O=C(OCCCOC(=O)c1cc[n+]([O-])cc1)c1cc[n+]([O-])cc1,0.8,-0.1,3.6,i,0.692,-1.4,2.5
CO/N=C(/CNC(=O)c1ccc(Cl)cc1Cl)c1ccc(Cl)cc1,-0.5,0.6,-7.4,/,/,4.2,/
COc1ccc(C(=O)Nc2ccc(S(=O)(=O)Nc3onc(C)c3C)cc2)cc1OC,-2.0,0.3,-9.4,/,0.755,-2.2,2.9
O=C(Nc1nnc(C2CC2)s1)c1cccc(S(=O)(=O)N2CC(c3ccccc3)CC2=O)c1 (stereo unspecified),/,-0.6,2.4,i,0.782,/,4.4
CCCCn1c(SCC(=O)Nc2cc(C(F)(F)F)ccc2Cl)nnc1C(CC)N(C)C (stereo unspecified),3.0,1.6,-12.5,i,0.677,0.8,2.9
O=C(CCCn1c(=S)[nH]c2ccc(Br)cc2c1=O)N1CCN(c2ccccn2)CC1,5.7,2.4,21.1,/,0.694,92.2*,4.5
Cc1ccsc1/C=C1\Oc2cc(OCC(=O)c3ccccc3)ccc2C1=O,5.7,2.0,-3.8,i,0.736,-9.3,-10.8
O=C(O)c1ccccc1NC(=O)C1CCCO1 (stereo unspecified),-3.4,3.0,-0.3,/,0.684,-1.7,1.1
Cc1cc(=O)oc2cc(OCCC[n+]3ccccc3)ccc12,-1.1,1.8,14.2,i,0.665,-10.6,-10.6
Cc1ccc(CNS(=O)(=O)c2c(C(=O)N3CCCCCC3)c(C)n(C)c2C)cc1,5.7,0.9,2.7,i,0.686,-1.3,-0.1
COc1ccc(CN(C)S(=O)(=O)c2nnc(NC(=O)c3ccc(C)cc3)s2)cc1OC,6.3,2.5,5.4,i,0.685,-1.4,1.5
CCC1CCCCN1CCCNS(=O)(=O)c1ccc2c(c1)oc(=O)n2C (stereo unspecified),1.5,5.6,-27.2,i,0.682,-11.7,2.3
Oc1ccc(Cl)cc1CNCc1ccc(Cl)cc1,3.7,2.2,-6.3,i,0.614,/,2.0
NC(=O)CCN1CCN(S(=O)(=O)/C=C/c2ccccc2)CC1,1.3,-0.7,-1.5,i,0.606,/,1.4
O=C(Cc1c(F)cccc1Cl)NCC1CCCO1 (stereo unspecified),-4.5,1.1,-3.4,i,0.69,0.3,0.7
Cn1cc(C[C@H](NC(=O)OC(C)(C)C)C(=O)N[C@@H](CO)Cc2ccccc2)c2ccccc21,-5.3,1.0,-0.4,i,/,-6.0,1.8
CSc1ccccc1OCc1cc(C(=O)NCCN2CCCc3ccccc32)no1,4.0,4.4,2.4,i,0.665,-1.0,4.7
C=CCNc1nc(Cl)nc(Nc2ccc(OCC)cc2)n1,1.4,0.2,-4.5,i,0.741,0.3,3.4
O=C1N(Cc2ccccc2)CCCC12CCCN(Cc1ccccc1)C2=O,2.7,-0.3,4.7,/,0.679,-12.2,0.3
COc1ccc(CC(=O)Nc2cccc(S(=O)(=O)N3CCCCCC3)c2)cc1OC,i,0.1,-3.8,/,0.685,-9.4,3.3
CCCc1c(C(=O)N2CCN(c3ccccc3OC)CC2)cnn1-c1ccccc1,1.7,0.1,-8.5,i,0.689,-1.9,1.7
CCc1c(Cl)nc(N)nc1Nc1ccccc1C,/,25.0,4.9,i,0.681,/,-1.6
Cc1ccccc1CNC(=O)C1CCCN(c2nnc(C)c3c(C)n(-c4ccccc4)nc23)C1 (stereo unspecified),-0.9,6.6,5.6,i,0.664,-3.5,-98.6
COc1ccc(C(CNC(=O)c2oc3ccc(OC)cc3c2C)N2CCCC2)cc1 (stereo unspecified),-2.2,7.7,6.4,i,0.698,-9.4,-14.0
O=C(COC(=O)c1cc(-c2ccncc2)nc2ccccc12)Nc1ccc2c(c1)OCO2,0.3,/,/,/,0.7,/,2.1
O=C(CSc1nnc(NC(=O)C2CC2)s1)Nc1ccc(F)cc1,0.4,-2.5,-9.6,/,0.7,1.1,0.1
CC(=O)NC(Cc1ccccc1)C(=O)Oc1ccc2ccccc2c1 (stereo unspecified),/,3.4,20.3,/,0.628,/,-1.6
CCc1ccc(-c2cc(C(F)(F)F)n3nc(C(=O)Nc4c(C)nn(Cc5ccc(F)cc5)c4C)cc3n2)s1,-3.3,4.0,8.2,i,0.726,-0.4,-60.4
CC(=O)c1ccc(S(=O)(=O)N2CCN(C(=O)CSc3ccc(C)c(C)c3)CC2)cc1,1.3,-1.1,-5.0,i,0.707,5.7,0.7
CC(=O)N1CC(C)Sc2ccc(S(=O)(=O)NC(C)c3ccccc3)cc21 (stereo unspecified),-4.7,-1.9,-6.5,i,0.625,2.0,1.3
CC(CN1CCCCC1)OC(=O)COc1ccc(Br)cc1 (stereo unspecified),6.8,-2.6,5.5,i,0.667,-7.5,0.8
COc1cccc(OC)c1C(=O)Nc1ccc2c(c1)CCCN2S(=O)(=O)c1ccc(C)cc1,2.0,-1.5,9.4,i,0.668,-5.9,0.0
O=C(OCC1CCNCC1)c1ccc(F)cc1,/,-0.6,-5.9,i,0.648,/,-2.5
Cc1nc2sc(C(=O)OC(C)C)c(N)c2c(C)c1C,5.9,4.1,-3.1,i,0.725,/,-71.1
Cc1nn(-c2ccccn2)c2c1C(c1ccccc1Cl)C1=C(N2)c2ccccc2C1=O (stereo unspecified),-2.1,5.4,24.7,i,0.723,-1.5,7.8
CC(=O)c1c(C)[nH]c(-c2ccccc2)c1C,-0.9,-4.8,6.4,i,0.639,25.9,1.7
OC(CN1CCN(c2ccc(C(F)(F)F)cn2)CC1)c1ccccc1 (stereo unspecified),0.8,-3.4,5.8,/,0.637,-1.9,5.9
Cc1ccc(-c2nnc(SCC(=O)Nc3ccccc3N3CCOCC3)o2)cc1,/,0.8,0.4,/,0.688,/,2.7
CCN1C[C@@H]2[C@@H]3C(=O)N(C)C(=O)[C@@H]3[C@](Cc3ccccc3)(C1=O)N2C(=O)c1ccc(Cl)c(Cl)c1,/,-1.7,-4.4,i,/,/,0.7
Cc1nc(C(=O)NNC(=O)c2ccc(C(F)(F)F)cc2)cs1,-2.1,5.8,4.4,i,0.659,-5.7,2.4
CNC(=O)CSc1nc2cccnc2n1-c1ccc(F)cc1,5.3,0.0,3.4,i,0.63,-15.8,1.3

(more compounds)
smiles,LANA-H2B inh,HNF4A DNA FP,B2AR ag,FGF22 binding,E coli growth,ALR inh,UCH37 DUB inh
CC(C)(C)S(=O)N1Cc2cc(CO)cc(CCO)c2[C@@H]1CCO (stereo partly specified),/,1.6,-1.5,i,0.685,/,2.6
O=C(COC(=O)c1ccc([N+](=O)[O-])cc1)Nc1ccc(Cl)cn1,-5.8,-0.4,4.6,i,0.696,-8.1,2.0
CCOC(=O)c1cc(-c2cc(OC)c(OC)c(OC)c2)nc2c1c(=O)[nH]c(=O)n2Cc1ccccc1,-13.7,-3.5,25.9,i,0.712,-1.7,-172.6
Cc1ccc(C(=O)Cn2c(N3CCOCC3)nc3c2c(=O)n(C)c(=O)n3C)cc1,6.1,-0.4,-8.8,/,0.73,2.7,3.8
CN(C(=O)CSc1nc2ccccc2c(=O)n1-c1ccc(F)cc1)C1CCS(=O)(=O)C1 (stereo unspecified),/,0.7,-4.3,i,0.656,/,1.1
O=c1c2cccnc2n(-c2ccccc2)n1Cc1ccc(Cl)cc1,9.8,4.1,1.5,i,0.668,-22.3,-423.6
Cn1c(=O)c2c([nH]c(OCc3ccc(Cl)cc3Cl)[n+]2Cc2ccc(F)cc2)n(C)c1=O,2.2,3.1,10.2,i,0.634,-3.2,3.2
CCCOc1ccc(N2CC(C(=O)NCCc3ccc(OC)c(OC)c3)CC2=O)cc1 (stereo unspecified),8.2,-1.1,-6.6,i,0.642,-10.4,4.8
CCCc1nc2nc(C)c(NS(=O)(=O)c3ccc(C4CCCCC4)cc3)c(=O)n2[nH]1,-1.2,-2.6,6.6,i,0.692,35.3,2.7
C=CCSc1nnc(NC(=O)CCN2C(=O)C3CC=CCC3C2=O)s1 (stereo unspecified),4.3,0.9,-4.5,i,0.69,-14.2,1.7
CCOC(=O)CCNC(=O)c1ccc2nc(C3CCCCC3)oc2c1,4.2,-0.2,-3.5,i,0.688,/,5.4
O=C(c1ccc2c(=O)n(Cc3ccco3)c(=S)[nH]c2c1)N1CCN(c2ccccc2)CC1,0.4,-1.7,2.7,/,0.711,7.5,0.6
CCc1ccccc1NC(=O)NCc1ccccn1,-4.3,2.3,-3.1,i,0.685,-3.3,4.4
O=C1NCCCC1C(=O)Nc1ccccn1 (stereo unspecified),1.1,0.0,-5.5,/,0.742,5.2,4.7
Cc1ccc(C(=O)NC(=S)N2CCN(c3cc(C)ccc3C)CC2)cc1,-5.4,-0.7,-9.1,i,0.712,3.5,0.6
O=C(N/N=C/c1cccs1)C(=O)N1CCCC1,14.9*,-2.9,-5.8,i,/,-16.8,/
Cc1nc2c([nH]c3ccccc32)c(=O)n1N,-1.3,-1.1,3.6,i,0.685,-2.2,-11.6
O=C(Nc1cnn(Cc2ccc(Cl)cc2Cl)c1)c1cc(-c2cccs2)on1,-2.9,1.0,-6.5,/,0.77,57.6,-13.3
COc1cc(NC(=O)c2ccc(-c3cccc(F)c3)o2)ccc1NC(=O)c1ccccc1Cl,5.2,2.7,8.0,i,0.674,3.0,-4.1
O=C(Cc1cccs1)Nc1nc2c(ccc3ccccc32)s1,-8.7,3.3,3.1,/,0.644,-19.5,-3.5

Screening data as filed in PubChem.

This is a subset; count on the stated rates, not on these rows.
